# Compound activity from PubChem.
# MLL AF4-AF9 inh: MLL-AF4/AF9 protein interaction inhibition | inhibition, % at 10 µM | 350,000 tested, 0.47% active | AlphaScreen, biotin-AF4 peptide binding to FLAG-AF9 | AID 651704;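 active means every replicate reaching a set inhibition limit, whatever the replicate mean, cut at about 25% in these data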;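 further: 0% = plate neutral control median and 100% = total signal loss; the record names both 10 and 1 µM as test concentration; the first replicate is given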
# Target sequence (P42568 whole entry, looked up): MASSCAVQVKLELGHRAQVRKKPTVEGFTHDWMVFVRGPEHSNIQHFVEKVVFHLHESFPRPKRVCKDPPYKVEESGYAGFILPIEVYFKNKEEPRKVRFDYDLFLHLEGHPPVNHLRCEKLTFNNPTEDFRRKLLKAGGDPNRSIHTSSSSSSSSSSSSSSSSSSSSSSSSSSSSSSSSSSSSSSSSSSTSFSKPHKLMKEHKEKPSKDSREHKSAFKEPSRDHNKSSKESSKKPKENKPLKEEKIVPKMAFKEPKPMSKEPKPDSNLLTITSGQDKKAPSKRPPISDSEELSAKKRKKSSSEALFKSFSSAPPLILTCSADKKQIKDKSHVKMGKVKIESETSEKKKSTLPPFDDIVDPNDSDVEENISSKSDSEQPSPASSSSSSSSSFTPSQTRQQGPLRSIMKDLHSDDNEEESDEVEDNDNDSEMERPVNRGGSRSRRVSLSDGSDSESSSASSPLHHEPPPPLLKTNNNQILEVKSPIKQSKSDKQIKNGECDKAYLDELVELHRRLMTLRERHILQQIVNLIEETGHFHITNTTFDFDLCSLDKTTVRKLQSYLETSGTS
# The depositor's hits bear a star. Only part of the results is shown; count on the stated rates, not on these rows.
SMILES,MLL AF4-AF9 inh
COC(=O)c1cnc(Nc2nc(C(N)c3ccccc3Cl)cs2)nc1C(F)(F)F (stereo not given),5.8
N#C[C@H]1N[C@H](CO)[C@H]1c1ccc(C#CC2CCCCC2)cc1,2.1
Cc1ccc(-c2c(C(=O)c3ccc(Br)cc3)[nH]c(N)c2C(=O)NCc2ccc(Cl)cc2)cc1,-0.5
CCC(=O)N(CC)C[C@@H]1[C@@H](c2ccc(-c3ccccc3)cc2)[C@@H](CO)N1C(C)=O,-3.4
O=C(C[C@@H]1C[C@H]2c3cc(NC(=O)Cc4ccncc4)ccc3O[C@H]2[C@@H](CO)O1)NCC1CC1,-2.9
CCCC#Cc1ccc2c(c1)O[C@@H](CN(C)C(=O)c1ccccc1F)[C@H](C)CN([C@@H](C)CO)S2(=O)=O,0.2
O=C(c1cnc(Cc2c[nH]c3ccccc23)c(I)c1)N1CCN(Cc2ccccc2)CC1,6.5
C[C@H]1CCCCO[C@@H](CN(C)C(=O)Nc2ccc(F)cc2)[C@@H](C)CN([C@@H](C)CO)C(=O)c2cc(NC(=O)Nc3ccccc3)ccc2O1,-4.9
CCC(=O)N[C@@H]1CC[C@H](CC(=O)NCc2ccccc2F)O[C@H]1CO,-0.1
Cc1noc(C)c1NC(=O)Nc1ccc2c(c1)C(=O)N([C@H](C)CO)C[C@@H](C)[C@H](CN(C)Cc1ccccc1)OCCCC[C@@H](C)O2,-2.9
Cc1cccc(-c2ccc([C@H]3[C@H]4CN(S(=O)(=O)c5ccccc5C)CCCCN4[C@H]3CO)cc2)c1,-0.7
Cc1ccc(S(=O)(=O)N[C@@H]2CCCN(Cc3cccc(OCCO)c3)C2)cc1,7.2
CCC(=O)N1C[C@H](C)[C@H](OC)CN(C)C(=O)c2cc(NC(=O)NC(C)C)ccc2OC[C@@H]1C,1.6
COCCNC(=O)C1(C)CCN(C(=O)c2sccc2C)C1 (stereo not given),-6.3
Cc1ccc(S(=O)(=O)Nc2ccc3c(c2)CC(=O)N([C@H](C)CO)C[C@H](C)[C@H](CN(C)CC2CCCCC2)O3)cc1,1.1
CNC[C@H]1Oc2ccc(NS(=O)(=O)c3c(C)noc3C)cc2CC(=O)N([C@H](C)CO)C[C@@H]1C,-3.3
CCCN1C[C@H](C)[C@@H](OC)CN(C)C(=O)c2ccc(NC(=O)c3ccccc3F)cc2OC[C@@H]1C,-1.9
CCC(=O)Nc1ccc2c(c1)OC[C@H](C)N(C(=O)C1CCC1)C[C@H](C)[C@@H](OC)CN(C)C2=O,-2.3
CC1C(=O)N(Cc2cn(CCC3OCCCO3)nn2)CCS(=O)(=O)N1Cc1ccc(-c2cccc(N(C)C)c2)cc1 (stereo not given),3.0
CC(C)C[C@H]1CNC(=O)C(=O)N1C[C@H](Cc1ccc(O)cc1)NC(=O)CC12CC3CC(CC(C3)C1)C2,-1.6
Cc1ccc(S(=O)(=O)N(C)C[C@@H]2Oc3ccc(NS(=O)(=O)c4c(C)noc4C)cc3C(=O)N([C@@H](C)CO)C[C@@H]2C)cc1,-5.2
C[C@@H]1CN([C@H](C)CO)C(=O)c2cc(NC(=O)Cc3ccccc3)ccc2O[C@@H](C)CCCCO[C@@H]1CN(C)C(=O)c1ccncc1,-0.3
CN1[C@@H]2Cn3c(ccc(-c4ccncc4)c3=O)[C@H]1[C@@H](C(=O)NC1CCCCC1)[C@@H]2CO,0.7
O=C(C[C@H]1C[C@@H]2c3cc(NC(=O)Nc4ccccc4F)ccc3O[C@@H]2[C@@H](CO)O1)NCc1ccc2c(c1)OCO2,1.8
CCCNC(=O)N(C)C[C@@H]1Oc2cc(-c3cncnc3)ccc2S(=O)(=O)N([C@H](C)CO)C[C@@H]1C,-12

# Entries above containing a Cl atom (2):
SMILES,MLL AF4-AF9 inh
COC(=O)c1cnc(Nc2nc(C(N)c3ccccc3Cl)cs2)nc1C(F)(F)F (stereo not given),5.8
Cc1ccc(-c2c(C(=O)c3ccc(Br)cc3)[nH]c(N)c2C(=O)NCc2ccc(Cl)cc2)cc1,-0.5

# Next part
SMILES,MLL AF4-AF9 inh
C[C@@H]1CN([C@H](C)CO)C(=O)c2cc(NS(=O)(=O)c3ccccc3)ccc2O[C@@H](C)CCCCO[C@@H]1CN(C)C(=O)CCC(F)(F)F,-0.6
CNC[C@H]1Oc2ccc(NC(=O)NC(C)C)cc2CC(=O)N([C@@H](C)CO)C[C@H]1C,-3.0
COc1ccc(C(=O)NCC(c2ccco2)N2CCCCC2)cc1S(=O)(=O)Nc1ccc(C)cc1 (stereo not given),-1.3
NC(=O)[C@H]1[C@@H]2C(=O)O[C@@H](c3ccccc3)[C@@H](c3ccccc3)N2[C@@H](c2ccc(O)cc2)[C@]12C(=O)Nc1ccc(C#CCCO)cc12,0.3
COCCNC(=O)C[C@@H]1CC[C@@H]2[C@H](COc3ccc(NC(=O)C4CCOCC4)cc3C(=O)N2C)O1,0.4
CCCN(C)C[C@@H]1OCCCC[C@@H](C)Oc2ccc(NC(=O)Nc3ccc(F)cc3)cc2C(=O)N([C@H](C)CO)C[C@@H]1C,0.6
C[C@@H]1CN([C@@H](C)CO)C(=O)c2cc(NS(=O)(=O)c3ccc(F)cc3)ccc2O[C@@H](C)CCCCO[C@H]1CN(C)S(=O)(=O)c1ccc(Cl)cc1,-9.7
Cc1noc(C)c1NC(=O)Nc1ccc2c(c1)C(=O)N([C@H](C)CO)C[C@H](C)[C@H](CN(C)Cc1ccccc1)O2,-0.6
COc1ccc2c3c(n(C)c2c1)[C@@H](CO)N(C(=O)Nc1ccc(F)cc1)CC31CCN(S(=O)(=O)c2cn(C)cn2)CC1,0.0
COC(=O)C[C@@H]1C[C@@H]2c3cc(NC(=O)NC4CCCC4)ccc3O[C@@H]2[C@@H](CO)O1,-0.6
COCC(=O)N1[C@@H](CO)[C@@H]2c3ccccc3N(C(=O)Nc3ccccc3Cl)C[C@@H]21,-2.6
COCC#Cc1cnc2c(c1)C(=O)N([C@@H](C)CO)C[C@@H](C)[C@H](CN(C)S(=O)(=O)c1ccccc1)O2,-2.3
O=C(COC(=O)c1ccc[nH]c1=O)NCC12CC3CC(CC(C3)C1)C2,0.6
CCC(=O)N1CC2(C1)[C@H](c1ccc(-c3ccccc3OC)cc1)[C@@H](CO)N2C(C)=O,-0.3
Cc1noc(C)c1NC(=O)N(C)C[C@H]1OCCCC[C@@H](C)Oc2ccc(NC(=O)C3CCCCC3)cc2C(=O)N([C@@H](C)CO)C[C@@H]1C,-1.7
CC1(C(=O)NS(=O)(=O)c2ccc3c(c2)CCO3)CCN1C(=O)CCc1ccc(Cl)cc1Cl (stereo not given),-3.6
O=C(CSc1nc(NS(=O)(=O)c2ccccc2)cc(=O)[nH]1)Nc1ccc(Cl)cc1,-1.5
CCCNC(=O)N1[C@H](CO)[C@H](c2ccccc2)[C@H]1CNC(=O)C1CCC1,-4.3
COc1ccc(S(=O)(=O)N[C@@H]2CC[C@@H](CC(=O)O)O[C@@H]2CO)cc1,-1.0
COC(=O)C[C@@H]1CC[C@H](NC(=O)c2ccccc2)[C@H](CO)O1,-1.9
O=C(C[C@@H]1C=C[C@@H](NS(=O)(=O)c2ccc(F)cc2)[C@@H](CO)O1)NCCN1CCCCC1,-1.0
C[C@@H]1CCCCO[C@H](CN(C)S(=O)(=O)c2ccc(Cl)cc2)[C@H](C)CN([C@@H](C)CO)C(=O)c2cc(NC(=O)NC3CCCCC3)ccc2O1,0.4
CCC(=O)N1CCC2(CC1)CN(C(=O)c1ccccn1)[C@H](CO)c1c2c2ccc(OC)cc2n1C,-0.5
CNC[C@H]1Oc2ccc(NC(=O)CCC(F)(F)F)cc2CC(=O)N([C@H](C)CO)C[C@@H]1C,-5.9
Cc1noc(C)c1NC(=O)Nc1ccc2c(c1)CC(=O)N([C@@H](C)CO)C[C@H](C)[C@@H](CN(C)S(=O)(=O)c1ccc(F)cc1)O2,3.1
SMILES,MLL AF4-AF9 inh
C[C@H]1CN([C@@H](C)CO)S(=O)(=O)c2ccc(C#Cc3ccc(F)cc3)cc2O[C@H]1CN(C)C(=O)c1ccccn1,1.5
CCCNC(=O)N[C@H]1CC[C@H](CCn2cc(-c3cccc(F)c3)nn2)O[C@@H]1CO,-0.1
CNC(=O)C[C@H]1CC[C@H]2[C@@H](COc3ccc(NC(=O)c4ccccc4Cl)cc3C(=O)N2C)O1,-2.2
CCCNC(=O)N(C)C[C@@H]1Oc2ncc(C#CC3(O)CCCC3)cc2C(=O)N([C@H](C)CO)C[C@H]1C,-2.1
C[C@@H]1CN([C@H](C)CO)C(=O)c2cccc(NC(=O)c3cnccn3)c2O[C@H]1CN(C)Cc1ccc(Cl)c(Cl)c1,-0.7
C[C@@H]1CCCCO[C@H](CN(C)C(=O)Nc2ccc(F)cc2)[C@H](C)CN([C@H](C)CO)C(=O)c2cc(NC(=O)Nc3ccc(C(F)(F)F)cc3)ccc2O1,-11
COCC(=O)Nc1ccc2c(c1)OC[C@@H](C)N(Cc1ccncc1)C[C@H](C)[C@H](OC)CN(C)C2=O,-1.2
CO[C@H]1CN(C)C(=O)c2ccc(NS(=O)(=O)CC(F)(F)F)cc2OC[C@@H](C)N(CC2CCCCC2)C[C@H]1C,1.1
CC(=Cc1ccccc1)C=C1SC(=S)N(CCCC(=O)Nc2ccc(C(=O)O)cc2)C1=O,13
N#C[C@@H]1[C@H](c2ccc(-c3cccnc3)cc2)[C@H](CO)N1C(=O)C1CC1,-1.0
C[C@H]1CN([C@@H](C)CO)C(=O)c2cc(NC(=O)Nc3ccc4c(c3)OCO4)ccc2O[C@@H]1CN(C)S(=O)(=O)c1cn(C)cn1,-1.8
COc1ccc(NC(=O)N2C[C@@H](O)COC[C@H]3O[C@@H](CC(=O)NCc4ccncn4)CC[C@@H]32)cc1,-1.4
O=C(CC(F)(F)F)N1C[C@H]2[C@@H](c3ccccc31)[C@@H](CO)N2C(=O)CN1CCOCC1,0.4
COCCNC(=O)C[C@H]1CC[C@H]2[C@@H](COC[C@H](O)CN2C(=O)Nc2ccccc2OC)O1,-4.1
Cc1ccc(F)c(S(=O)(=O)NC(=O)C2(C)CCN2C(=O)CCc2cccs2)c1 (stereo not given),-4.8
CO[C@@H](CN(C)S(=O)(=O)c1cccc(Cl)c1)[C@@H](C)CN([C@H](C)CO)S(=O)(=O)c1cccc(Cl)c1,-6.5
O=C(NCCc1ccccc1)[C@H]1[C@H](CO)[C@H]2Cn3c(ccc(-c4ccccc4)c3=O)[C@@H]1N2,1.1
OC(c1ccc(F)cc1)c1ncc(-c2ccc3ccccc3c2)[nH]1 (stereo not given),-2.2
O=C(N[C@@H]1CC[C@@H](CCNS(=O)(=O)c2ccc(F)cc2)O[C@@H]1CO)c1cccc(F)c1,-1.0
O=C(C[C@@H]1C[C@H]2c3cc(NC(=O)CC4CC4)ccc3O[C@H]2[C@H](CO)O1)NCc1cccnc1,-5.1
Cc1cc(C(=O)Nc2cccc3c2O[C@H](CN(C)Cc2ccc4c(c2)OCO4)[C@@H](C)CN([C@@H](C)CO)C3=O)n(C)n1,-2.4
O=C(C[C@H]1CC[C@H](NC(=O)Nc2ccc(F)cc2)[C@H](CO)O1)NCc1ccccn1,-0.1
CCCCN(C(=O)c1cccc(S(=O)(=O)N(CC)c2ccccc2)c1)c1c(N)n(CCCC)c(=O)[nH]c1=O,-32
CC(C)NC(=O)Nc1ccc2c(c1)C(=O)N([C@H](C)CO)C[C@H](C)[C@@H](CN(C)Cc1ccc(C(F)(F)F)cc1)O2,0.7
C[C@@H]1CN([C@@H](C)CO)C(=O)c2cc(NC(=O)Nc3ccc(C(F)(F)F)cc3)ccc2O[C@@H](C)CCCCO[C@@H]1CN(C)C(=O)C1CCCCC1,1.3

# In a second layout: four of the compounds above
O=C(CSc1nc(NS(=O)(=O)c2ccccc2)cc(=O)[nH]1)Nc1ccc(Cl)cc1
  MLL AF4-AF9 inh = -1.5
Cc1noc(C)c1NC(=O)N(C)C[C@H]1OCCCC[C@@H](C)Oc2ccc(NC(=O)C3CCCCC3)cc2C(=O)N([C@@H](C)CO)C[C@@H]1C
  MLL AF4-AF9 inh = -1.7
C[C@@H]1CCCCO[C@H](CN(C)S(=O)(=O)c2ccc(Cl)cc2)[C@H](C)CN([C@@H](C)CO)C(=O)c2cc(NC(=O)NC3CCCCC3)ccc2O1
  MLL AF4-AF9 inh = 0.4
Cc1ccc(S(=O)(=O)Nc2ccc3c(c2)CC(=O)N([C@H](C)CO)C[C@H](C)[C@H](CN(C)CC2CCCCC2)O3)cc1
  MLL AF4-AF9 inh = 1.1

# (next part)
SMILES,MLL AF4-AF9 inh
COC(=O)C[C@@H]1C[C@@H]2c3cc(NC(=O)Cc4ccncc4)ccc3O[C@@H]2[C@H](CO)O1,1.6
CCNC(=O)[C@@H]1[C@@H](CO)[C@@H]2Cn3c(ccc(C4=CCCCC4)c3=O)[C@@H]2N1Cc1ccccc1,3.6
CNc1nc(NCc2ccc(C)cc2C)c2sccc2n1,7.4
COc1cccc(C(=O)Nc2ccc3c(c2)C(=O)N(C)C[C@@H](OC)[C@H](C)CN(C(=O)C2CCCCC2)[C@H](C)CO3)c1,2.9
COc1ccc(NC(=O)Nc2ccc3c(c2)[C@@H]2C[C@@H](CC(=O)NCc4ccc5c(c4)OCO5)O[C@@H](CO)[C@@H]2O3)cc1,2.7
C[C@@H]1CN([C@@H](C)CO)C(=O)c2cc(NS(=O)(=O)c3cn(C)cn3)ccc2O[C@@H](C)CCCCO[C@@H]1CN(C)S(=O)(=O)c1cccs1,-5.4
C[C@@H]1CN([C@@H](C)CO)C(=O)Cc2cc(NS(=O)(=O)c3ccccc3)ccc2O[C@@H]1CN(C)S(=O)(=O)c1ccccc1,-1.7
O=C(Cc1ccccc1)c1ccc(O)cc1O,0.2
COc1ccccc1-c1ccc2c(c1)O[C@@H](CN(C)S(=O)(=O)c1ccc(F)cc1)[C@@H](C)CN([C@@H](C)CO)S2(=O)=O,2.1
COc1ccc(-c2ccc([C@H]3[C@H]4CN(C(=O)c5ccccn5)CC(=O)N4[C@H]3CO)cc2)cc1,-1.3
